Compound activity: PubChem, Fisher Drug Discovery Resource Center
NPYLR7 agonist: agonists of mosquito NPYLR7 receptor, primary screen, cell-based, Aedes aegypti, calcium fluorescence, mosquito biting behavior; 270,000 tested, 0.15% active; Aedes aegypti neuropeptide Y-like receptor 7 (NPYLR7); activation, % at 10 µM; HEK293T NPYLR7/Galpha15, GCaMP6s calcium fluorescence; in the data active = activation above about 40%;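 also: 0% = vehicle and 100% = reference agonist at the receptor; some compounds past the cut are filed as inactive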
NPYLR7 agonist max-min: second read-out of NPYLR7 agonist, no call of its own (marks repeat the call); activation, %; measured here: Max-Min RFU normalised activation; some inactives read as strong as hits;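 span of the calcium signal over five minutes; 0% = vehicle and 100% = native peptide agonist; compound fluorescence can raise it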
* hit, by the source's call. A portion of the library, so the mix of outcomes need not match the whole.

SMILES | NPYLR7 agonist | NPYLR7 agonist max-min
N#CCNC(=O)C1(c2ccccc2)CCN(C(=O)c2cc3ccccc3[nH]2)CC1 | 13 | 11
COC(=O)c1ccc2c(c1)S(=O)(=O)N=C2Cl | 9 | 8
COc1cccc(Cc2nsc(Oc3ccc(CC(=O)NC(Cc4ccccc4)c4ccccc4)cc3)n2)c1 (stereo not drawn) | 16 | 15
CCOC(=O)Cc1csc(NC(=O)C2Cc3cc(Cl)ccc3O2)n1 (stereo not drawn) | 4 | 1
NC(=O)c1nc(C2CCCCC2)nc2c1[nH]c(=O)n2-c1ccc(F)cc1 | 1 | -1
COc1cc(=O)n(-c2ccccc2)nc1C(=O)Nc1ccc(C(N)=O)cc1 | 2 | 2
O=C(c1c(F)cccc1F)N1CCC(Cc2ccc(-c3ccccc3)cc2)CC1 | 25 | 23
Cc1ccc(-c2nn(-c3cccc(F)c3)cc2CN2CCC(C(O)c3nccn3C)CC2)o1 (stereo not drawn) | 2 | -1
O=C(Nc1ccc(C2SCC(=O)N2c2ccc3c(c2)CCC3)cc1)c1ccco1 (stereo not drawn) | 11 | 21
COc1ccc(OC)c(NC(=O)CCC(=O)N2CCc3c([nH]c4ccccc34)C2)c1 | -4 | -7
CCN(CC)CCCNC(=O)c1nn2c(C(F)(F)F)cc(-c3ccccc3)nc2c1Cl | -9 | -12
OCCCNc1ccc2nnc(C(F)(F)F)n2n1 | 3 | 0
COC(=O)c1ccc(S(=O)(=O)Nc2ccc(OC)cc2OC)cc1 | -5 | -5
COC(=O)c1[nH]ncc1CN(C)Cc1ccc(-n2cccn2)cc1 | 12 | 7
COc1ccc(C(NC(=O)C2CCN(CCOc3ccccc3)CC2)c2ccccn2)cc1 (stereo not drawn) | 10 | 1
Cc1ccc(NCN2C(=O)c3ccc([N+](=O)[O-])cc3C2=O)cc1 | -3 | -5
CCc1cccc2c(C(CC(=O)NCc3ccncc3)c3cccc(OC)c3OC)c[nH]c12 (stereo not drawn) | 4 | 8
Cc1ccc(-c2cn3cccnc3n2)cc1NC(=O)c1cccc(C(F)(F)F)c1 | 4 | 8
COc1ccc(CC(=O)N2CCC(n3c(C)nc4cc(C(F)(F)F)ccc43)CC2)cc1 | 3 | 4
O=c1cc(-c2ccccc2)nc(SCc2nc(-c3cccc(Br)c3)no2)[nH]1 | -16 | -21
C1=CC[C@H]2CN(Cc3cnc(CC4CCCC4)[nH]3)C[C@H]2C1 | 12 | 12
CCCC1COCCN1C(=O)c1c[nH]c(=O)[nH]c1=O (stereo not drawn) | 0 | 9
O=C1CN(C(=O)C=Cc2ccc(OC(F)F)cc2)c2ccccc2N1 | 14 | 6
N#CC(=Cc1ccsc1)C(=O)NC1CCCCC1 | 4 | 2
c1ccc2c(c1)CCC2Nc1cc(N2CCOCC2)ncn1 (stereo not drawn) | -16 | -15
CCc1ccc(C2=NN(S(C)(=O)=O)C(c3ccc4nccnc4c3)C2)cc1 (stereo not drawn) | 1 | 7
CCOc1c(CC)cnc2c1c(=O)n(CC(=O)NC)c(=O)n2C | -3 | -4
CCCn1nc(C)c2c1NC(=O)CC2c1ccc(S(=O)(=O)NC)cc1 (stereo not drawn) | 6 | 4
CCc1nc(N(CCC(=O)NCCOC)Cc2ccco2)c2ccccc2n1 | -6 | -2
COc1cccc(C(=O)N2C[C@@H]3[C@@H]4CC[C@@H](C4)[C@@H]3C2)c1OC | 10 | 6

Record cards, from the list above.
Shown for `CCc1cccc2c(C(CC(=O)NCc3ccncc3)c3cccc(OC)c3OC)c[nH]c12` (stereo not drawn) = NPYLR7 agonist: 4; NPYLR7 agonist max-min: 8
Shown for `CCOc1c(CC)cnc2c1c(=O)n(CC(=O)NC)c(=O)n2C` = NPYLR7 agonist: -3; NPYLR7 agonist max-min: -4

Continued.
SMILES | NPYLR7 agonist | NPYLR7 agonist max-min
Cc1ccc(CC(=O)Nc2ccc(C)cc2-c2n[nH]c(C3CC3)n2)cc1 | 10 | 8
O=C(c1cccc(F)c1)N1CCC2(CC1)OCc1cc(-c3cccc(F)c3)ccc1O2 | -2 | -12
Cc1noc(C)c1C(=O)N1CCN(C(c2ccc(F)cc2)c2ccc(F)cc2)CC1 | -17 | -16
COc1ccc2c(c1)sc(=NC(=O)c1ccc3ncsc3c1)n2C | 3 | 1
COCCN(Cc1nccn1Cc1cccc(Cl)c1)C(=O)COC | 6 | 9
CN1CCN(c2cc(OCCNC(=O)NCc3ccccc3)ncn2)CC1 | -2 | -2
Cn1cc(-c2ccc3c(c2)N(Cc2ccccc2)C(=O)COC3)cn1 | 8 | 1
O=C(c1n[nH]c(=O)c2ccccc12)N1CCCC(c2nc3ccccc3s2)C1 (stereo not drawn) | 1 | 0
Cc1c(Cl)cccc1NC(=O)c1csc(Nc2ccccn2)n1 | -1 | -3
CC(Cc1ccc2c(c1)OCO2)c1nccn1-c1ccc(-n2cnnn2)cc1 (stereo not drawn) | 12 | -6
CC(=O)NC1(C(=O)NC(C)c2ccc(C(F)(F)F)cc2)CCCCC1 (stereo not drawn) | 8 | 2
CCC(C)C(NS(=O)(=O)c1c(C)cc(C)cc1C)C(=O)Nc1nnc(-c2ccc(Br)cc2)s1 (stereo not drawn) | 7 | -3
CCCCn1c(N)c(NC)c(=O)[nH]c1=O | 6 | 6
CSc1nc(C(=O)NCc2cccnc2N2CCOCC2)cs1 | 2 | 0
CCOC(=O)C1CCN(C(c2ccccc2)C2Sc3nc(C)nn3C2=O)CC1 (stereo not drawn) | 1 | -4

Reformatted with values under each structure: 2 of the compounds above
Order of results – NPYLR7 agonist, NPYLR7 agonist max-min
> Cc1noc(C)c1C(=O)N1CCN(C(c2ccc(F)cc2)c2ccc(F)cc2)CC1
 : -17, -16
> COc1ccc2c(c1)sc(=NC(=O)c1ccc3ncsc3c1)n2C
 : 3, 1

The list goes on:
SMILES | NPYLR7 agonist | NPYLR7 agonist max-min
COC(=O)C1=C(C)NC(C)=C(C(=O)OC)C1c1cccc(Cl)c1 | -1 | 1
Cc1ccc(NS(=O)(=O)c2ccc([N+](=O)[O-])cc2)cc1 | -4 | -9
Cc1cccc(COC(CN2CCN(C(=O)c3cc(F)ccc3F)CC2)c2ccc(Cl)cc2)c1 (stereo not drawn) | 2 | -1
CCN(C)Cc1n[nH]c(=O)n1-c1cc(F)ccc1C | 6 | 3
CC1(C)C2CC=C(C=NNC(=O)NC3CCCCC3)C1C2 (stereo not drawn) | -6 | -6
CCCOC(=O)C1=C(C)N(C)C(=O)NC1c1ccc([N+](=O)[O-])cc1 (stereo not drawn) | 8 | 10
CC(C)=CCC/C(C)=C/CNS(=O)(=O)c1ccccc1C(F)(F)F | -5 | -10
O=C1NCC2(CCCN(c3ncnc4[nH]ccc34)CC2)O1 (stereo not drawn) | 3 | 1
NS(=O)(=O)c1ccc(-n2ncc(NCc3ccc(F)cc3)c(Cl)c2=O)cc1 | 10 | 8
COc1cccc(Cn2nccc2N)c1OC | 3 | 10
CCOc1ccc(Nc2ncccc2C(=O)N2CCOC(C)C2)cc1 (stereo not drawn) | -3 | -1
CCOC(=O)c1nn(-c2cccc(Cl)c2)c(=O)c2c(NC(=O)c3ccco3)scc12 | 0 | -1
COc1ccccc1C1CC1C(=O)NC(C)c1nc2ccccc2n1C (stereo not drawn) | 1 | 0
CC(=O)Cn1c(CN2CCN(c3ccc(F)cc3)CC2)nc2c1c(=O)[nH]c(=O)n2C | -9 | -10
CN(C)c1ncc(CN2CCCC(C(=O)Nc3ccc(-c4ccco4)cc3)C2)s1 (stereo not drawn) | 4 | 1

The final four compounds of the section above come first, to join the parts.
SMILES | NPYLR7 agonist | NPYLR7 agonist max-min
CCOC(=O)c1nn(-c2cccc(Cl)c2)c(=O)c2c(NC(=O)c3ccco3)scc12 | 0 | -1
COc1ccccc1C1CC1C(=O)NC(C)c1nc2ccccc2n1C (stereo not drawn) | 1 | 0
CC(=O)Cn1c(CN2CCN(c3ccc(F)cc3)CC2)nc2c1c(=O)[nH]c(=O)n2C | -9 | -10
CN(C)c1ncc(CN2CCCC(C(=O)Nc3ccc(-c4ccco4)cc3)C2)s1 (stereo not drawn) | 4 | 1
COc1ccc(S(=O)(=O)N2CCCC(C(=O)Nc3ncccc3C)C2)cc1 (stereo not drawn) | 4 | -4
c1cc2nc(N3CCOCC3)ccn2n1 | 1 | 0
CC1CCN(C(=O)c2cn(CC3CCCO3)cc3c(=O)n(-c4ccccc4)nc2-3)CC1 (stereo not drawn) | 18 | 14
COC(=O)C(c1ccccc1Cl)N(C)Cc1csc(C)n1 (stereo not drawn) | 3 | -1
Cc1nn(-c2ccc(F)cc2)c(C)c1C(=O)NCc1ccnc(N2CCCC2)c1 | -1 | -4
CC(=O)NC1CCN(Cc2nc(-c3cccc(F)c3F)oc2C)C1 (stereo not drawn) | -8 | -12
N#Cc1ccccc1CN1CCN(S(=O)(=O)c2ccccc2Cl)CC1 | 1 | -1
CCOc1ccccc1NC(=O)NCC(=O)Nc1ccc(Cl)cc1F | 4 | 2
O=C(CN1C(=O)CNC1=O)N1CCC(c2[nH]ncc2-c2cccc(F)c2)CC1 | 9 | 6
CCc1ccc(NCC(=O)Nc2ccc(I)cc2C)cc1 | 2 | 8
COCCNC(=O)c1ccc(CSc2nnc(-c3ccccc3[N+](=O)[O-])n2-c2ccc(C)cc2)cc1 | 6 | 11
Oc1ccccc1/C=N\Nc1nc(N2CCCC2)nc(N2CCCC2)n1 | -3 | -10
CN(CCCn1cccn1)C(=O)c1ccc(NC(=O)C2CCC2)cc1 | 4 | 2
Nc1cc2c(cc1[N+](=O)[O-])OCO2 | 6 | 1
CC(NC(=O)c1cccc(Cl)c1)C(c1cccs1)N1CCCC1 (stereo not drawn) | 1 | -5
Nc1c(Cl)cc(NC(=O)C2CC23CCOCC3)cc1Cl (stereo not drawn) | 7 | 7
CCOC(=O)c1c(N)c(C#N)cn1C(C)C | 0 | -3
COc1cccc(C(=O)C(C#N)=Cc2ccc(OC(F)F)c(OC)c2)c1 | 2 | 0
O=C(CS(=O)c1ccc(O)cc1)N1CCCCCCC1 (stereo not drawn) | 3 | 1
OC[C@@H]1CCCN1Cc1cn(-c2ccc(F)cc2)nc1-c1ccccc1Cl | 2 | -1
COc1cccc(CNC(=O)N2CCN(c3ccc(NC(=O)c4ccc(C)cc4)cn3)CC2)c1 | 10 | 11
C1=C[C@H]2C[C@@H]1C[C@H]2Cc1nc(-c2cnccn2)no1 | 12 | 2
Fc1ccc(/C=N\NC(=S)NCc2ccccc2)cc1Br | 3 | -3
CCCCN(C(=O)C1CCCO1)C1CC(C)(C)NC(C)(C)C1 (stereo not drawn) | 1 | 0
Cn1cc(CN(Cc2ccc(Cl)cc2F)C2CC2)cn1 | 1 | 2
CCCCn1c(=O)c2c(nc3n2CCCN3c2ccc(OC)cc2OC)n(C)c1=O | 0 | -3
O=C(O)C1(O)CCN(c2ncc(F)cn2)CC1 | -5 | -4
Cc1nc2scc(C)n2c(=O)c1S(=O)(=O)NCCN1CCOCC1 | 16 | 8
Cc1ccc(C(=O)N(C)C)cc1OCc1nc(C)c(C)o1 | 2 | -1
NS(=O)(=O)c1ccc(CCNC(=O)CCCn2nc(-c3cccs3)ccc2=O)cc1 | 2 | 7
C(=C\c1ccco1)/CN1CCC(CCn2cccn2)CC1 | 0 | 4
COc1ccc(C(=O)N2CCCCC2C(=O)OCCc2ccc(OC)c(OC)c2)c(OC)c1 (stereo not drawn) | 5 | 4
Cc1ccc(/C=C2\C(=O)N(c3nc(-c4ccc(Br)cc4)cs3)N=C2c2ccccc2)o1 | 4 | 17
O=C(/C=C/c1ccccc1)Nn1cnc2c(cnn2-c2cccc(Cl)c2)c1=O | 4 | 2
COc1ccc(N2CCN(Cc3ccc(-c4ccn[nH]4)o3)C(C)C2)cc1 (stereo not drawn) | 4 | 4
C(=C\c1cccc(-n2cnnc2)c1)/c1ccccc1 | -3 | -6
CC(C)C(NC(=O)COCC1CC1)c1ccc2[nH]c(=O)oc2c1 (stereo not drawn) | 2 | 1
CC(C)(C)c1cc(NC(=O)C2(C)CCN2C(=O)Cc2ccc(-c3ccccc3)cc2)no1 (stereo not drawn) | -5 | 20
Brc1ccc(-c2cn(-c3ccccc3)c3[n+]2CCCS3)cc1 | 2 | 2
CN(C)C(=O)c1cnn(-c2ccccc2)c1C(F)(F)F | 7 | 8
CC(/C=C1\SC(=S)N(C(C)C(=O)O)C1=O)=C\c1ccccc1 (stereo not drawn) | 0 | -4
Cc1ccc(NC(=O)CNCc2ccc(-c3ccccn3)s2)c(C)c1 | 16 | 9
COc1ccc(-n2cc(-c3ccc(Br)cc3)[n+]3c2SCCC3)cc1 | 9 | 9
CCOC(=O)c1ccc(NC(=O)c2c3c(nn2C2CCS(=O)(=O)C2)CCC3)cc1 (stereo not drawn) | 7 | 4
COC(=O)C1=C(C)N=c2sc(=Cc3ccc(C)o3)c(=O)n2C1c1ccc(OC)c(OC)c1 (stereo not drawn) | 7 | 10
CCn1ccnc1CN1CCCC(N2CCN(c3cccc(C(F)(F)F)c3)CC2)C1 (stereo not drawn) | 7 | -1
Cc1ccc(-c2nc3c(Nc4ccc(C(C)C)cc4)nccc3[nH]2)cc1 | -5 | -9
Cc1ccc(N2C(=O)/C(=C/c3ccc([N+](=O)[O-])cc3)C=C2c2ccccc2)c(C)c1 | 0 | 9
COC(=O)c1ccccc1NC(=S)Nc1ccc(CNC(=O)NC(C)C)cc1 | -3 | -11
O=C(NCC(=O)N1CCc2sccc2C1)c1ccc2c(c1)OCO2 | 0 | -1
Cc1ccccc1OCC(=O)NNC(=O)c1ccc(=O)n(Cc2ccc(Cl)cc2)c1 | -11 | -16
OCCNc1nnc2c(n1)[nH]c1ccccc12 | -1 | 9
Clc1ccc(CNc2ccccc2Cl)cn1 | -3 | 449
